# Screening data from PubChem BioAssay.
# VACV mCherry inh – inhibitors of vaccinia virus infection (mCherry reporter signal) | Vaccinia virus mCherry reporter infection, fluorescence; about a quarter of the inactives have no number | Potency, µM (highest dose often 36.5 µM), for inactives: top-dose activity change, negative = inhibition, actives largely listed as inhibitors | hit rate 0.63% among 310,000 | AID 720579; active = well fitted inhibition curve with a large enough effect; inconclusive = small, poorly fitted or top-dose-only effect; inactive = no such curve, though single readings can be large or run the other way; tested in A549 cells; also: nearly all actives have a fitted effect of over 35% in size; inactives centre near -10
# Vaccinia Venus – vaccinia inhibition (Venus reporter); Potency, µM (highest dose often 36.5 µM), for the others: at the top dose activity change, negative = inhibition, usual class: inhibitors; Vaccinia virus Venus reporter expression, fluorescence; hit rate 0.46% among 330,000; active means well fitted inhibition curve with a large enough effect; inconclusive means small, poorly fitted or top-dose-only effect; inactive means no such curve, though single readings can be large or run the other way; tested in A549 cells; also: nearly all actives have a fitted effect of over 30% in size; inactives centre near -10
# Active calls of the source: *; i = inactive; ? = inconclusive; . = not tested or not shown; & = joins results of further samples; [ ] = dose if it differs, or a comment. % is scaled to controls: 0 for no effect and ±100 for the full control effect; potency is read from the fitted curve at half-maximal effect.
structure,VACV mCherry inh,Vaccinia Venus
N#C/C(=C\C=C\c1ccccc1[N+](=O)[O-])C(=O)NC1CCCCC1,?,?
O=C(CCS(=O)(=O)c1ccc(Br)cc1)Nc1ccc(Br)cc1F,-25%,-22%
CCOC(=O)c1c(C)[nH]c(C(=O)CSc2nnnn2-c2ccccc2)c1C,-11%,-8%
O=C(NCc1cccc(Cl)c1)C(=O)Nc1ccc2nc3n(c(=O)c2c1)CCCCC3,-17%,-17%
COc1ccc(OCC(=O)Nc2ccc(N3CCN(C(=O)c4ccco4)CC3)cc2)cc1,i,10%
CCN(CC)c1ccc2c(O)cc(=O)oc2c1,i,-7%
Clc1ccc(-n2nnnc2-c2ccccc2)cc1Cl,-2%,-12%
Cn1cnnc1SCC(=O)Nc1ccc(N2CCOCC2)cc1,15%,7%
c1coc(CN(Cc2cccs2)Cc2nnnn2C2CCCCC2)c1,.,-17%
Cc1c(C(=O)c2ccc([N+](=O)[O-])cc2)c(=O)n(C)c(=O)n1C,-11%,-10%
O=C(Nc1ccc2c(c1)OCO2)c1cccc(Cl)c1,-29%,-19%
CCOc1ccccc1NC(=O)C1CCN(S(=O)(=O)c2ccc3[nH]c4c(c3c2)CCCCC4)CC1,-15%,-15%
CCc1c(C)nc2nncn2c1NCc1ccc(OC)cc1,?,-29%
CC(C(=O)N1CCCc2ccccc21)N1CCN(S(=O)(=O)c2ccccc2F)CC1 (centres undefined),-3%,-14%
O=C(Nc1ccccc1)c1ccn[nH]1,i,-5%
Cc1nc2ccccn2c1C(=O)Nc1ccc(Cl)cc1,-13%,4%

# Some of these compounds in order of formula weight, low to high:
structure,VACV mCherry inh,Vaccinia Venus
O=C(Nc1ccc2c(c1)OCO2)c1cccc(Cl)c1,-29%,-19%
CCc1c(C)nc2nncn2c1NCc1ccc(OC)cc1,?,-29%
Cc1c(C(=O)c2ccc([N+](=O)[O-])cc2)c(=O)n(C)c(=O)n1C,-11%,-10%
c1coc(CN(Cc2cccs2)Cc2nnnn2C2CCCCC2)c1,.,-17%
CC(C(=O)N1CCCc2ccccc21)N1CCN(S(=O)(=O)c2ccccc2F)CC1 (centres undefined),-3%,-14%

# (next part)
structure,VACV mCherry inh,Vaccinia Venus
COc1cccc(C(=O)Nc2ccccc2C(=O)OCc2cc(=O)n3c(C)csc3n2)c1,-16%,-10%
CCC(=O)/C=C1/Sc2ccccc2N1CC,.,?
Cc1ccccc1CN1CCCOCCS1(=O)=O,i,-10%&-7%
COc1ccc2cnn(-c3ccc(C)cc3)c(=O)c2c1OC,.,-11%
Cn1cc([C@]2(O)C(=O)Nc3ccccc32)c2ccccc21,-19%,-21%
CCOc1cc(NC(=O)c2ccccc2[N+](=O)[O-])c(OCC)cc1NC(=O)CC(C)C,-8%,-3%
Cc1ccc2cc(CCNC(=O)c3ccc(S(=O)(=O)N4CCOCC4)cc3)c(=O)[nH]c2c1C,?,-28%
COc1ccccc1S(=O)(=O)N(C)C[C@H]1OCc2cn(nn2)CCCC(=O)N([C@@H](C)CO)C[C@@H]1C,i,-5%
CC(C)OC(=O)CSc1nnc(CNc2ccc(Cl)cc2)n1C,i,2%
Cc1ccc(CN(Cc2ccco2)C(=O)c2oc3cc(Br)ccc3c2C)cc1,-6%,1%
CCc1cccc(NC(=O)CCc2c(C)nn(-c3ccc(N4CCCCC4)nn3)c2C)c1,-5%[7.34 µM],-10%[7.34 µM]
CN(CC(=O)Nc1ccc(F)cc1)C(=O)COc1ccc(C(=O)c2ccccc2)cc1,-21%,-4%
CC(CCc1ccccc1)NC(=O)c1ccccc1 (centres undefined),.,-13%
CC(=O)c1c(COC(=O)c2ccncc2)nc2ccccc2[n+]1[O-],.,16%
COc1ccc2c(CNCCc3cccs3)c(C(=O)O)n(Cc3ccc(F)cc3Cl)c2c1,?,?
COCCCNc1ccn2nc(-c3ccc(Cl)cc3)cc2n1,-17%,-9%
Cc1ccc(Cn2c(CCNc3nc(-c4ccc(Cl)c([N+](=O)[O-])c4)cs3)nc3cc(Cl)c(Cl)cc32)cc1,-7%,-20%
CC(C)(C)c1csc(NC(=O)c2ccncc2)n1,-21%,-22%
C/C(=N\OC(=O)C1CC1)C1CC1c1ccc(F)cc1 (centres undefined),3%,-13%
O=C(CCOc1ccccc1F)N1CCN(c2ccccc2O)CC1,?,-11%
COc1ccc(CCn2c(=N)c(C(=O)NCCN3CCOCC3)cc3c(=O)n4ccccc4nc32)cc1OC,0%,0%
Cn1c(=O)c([N+](=O)[O-])c(-n2cnc3ccccc32)c2ccccc21,-5%,-15%
O=C(Nc1cccnc1)c1ccc(Cl)c(S(=O)(=O)N2CCCCCC2)c1,?,?
Cc1ccc(CCC(=O)Nc2cc(Cl)ccc2Cl)o1,1%,-7%
Cc1cc(OC(=O)N2CCCCC2)c(C(C)C)cc1[N+](C)(C)C,-13%,-13%
COc1ccc(S(=O)(=O)Nc2ccc3c(c2)C(=O)N([C@H](C)CO)C[C@H](C)[C@@H](CN(C)Cc2ccncc2)OCCCC[C@@H](C)O3)cc1,i,-23%
Cc1cc(=O)[nH]c(N/N=C/c2ccco2)n1,-13%,-7%
CC1(C)Cc2c(c(N3CCOCC3)nc3snc(N)c23)CO1,-19%,-9%
CN(C)C(=O)COC(=O)c1cccc(S(=O)(=O)Nc2ccc(OCc3ccccc3)cc2)c1,i,-13%
O=c1[nH]c(NCCCO)nc2c1C1(CCCC1)Cc1ccccc1-2,-10%,-26%
CCOc1ccccc1NC(=O)N1CCC2(CC1)Oc1ccccc1C(=O)N2Cc1ccccc1F,i,-7%
Cc1cccc(N2C(=O)N3[C@H](c4ccc(F)cc4)[C@@H]4C(=O)N(C5CCCCC5)C(=O)[C@@H]4[C@]3(Cc3ccc(Cl)cc3)C2=O)c1,i,-20%
Fc1ccc(NC(=S)NCCc2ccccn2)cc1,i,-6%
O=C(Nc1ncn[nH]1)c1ccc(Cl)c(Cl)c1,-8%,-8%
CCN(C)C1CN(Cc2cn(Cc3ccc(F)cc3)nn2)S(=O)(=O)C1 (centres undefined),47%[activator],13%
O=C(O)c1ccccc1NC(=O)c1cc(-c2ccccc2)nc2ccccc12,-18%,-23%
O=C(NC1CCCC1)C(c1ccncc1)N(C(=O)c1csnn1)c1ccccc1F (centres undefined),i,-13%
COc1ccccc1CN1CCCC(C(=O)c2ccccc2SC)C1 (centres undefined),-13%,-20%
O=C(C1CCCCC1)N1CCN(S(=O)(=O)c2ccc(Cl)cc2)CC1,-8%,-15%
Cc1nn(C)cc1CNC(=O)C1CCC(=O)N(CC2CCCCC2)C1 (centres undefined),i,-12%
COc1cccc(C(C)(O)c2nc(-c3cnn(C)c3)cs2)c1 (centres undefined),-6%,-9%
CCCCCN(C(=O)CCC(=O)OCc1ccc(C(C)C)cc1)c1c(N)n(CCCC)c(=O)[nH]c1=O,-3%,-13%
COc1ccc(CC(=O)N/N=C(\C)CC(=O)Nc2cccc(F)c2)cc1,-19%,-9%
Cc1ccc(-c2csc(N(CCO)CCCn3c(C(F)(F)F)nc4cc(C(F)(F)F)ccc43)n2)cc1,-9%,-20%
Cc1sc2ncnc(OCC(=O)NC(C)C)c2c1C,i,-10%
C/C(CC(=O)Nc1ccc2c(c1)OCCO2)=N\NC(=O)c1ccccc1F,-18%,-8%
COc1ccc(C(=O)Oc2cc3c4c(c2)C(C)=CC(C)(C)N4C(=O)C3=O)cc1OC,-12%,-6%
Cc1[nH]c2ccccc2c1C(=O)CSc1nccc(=O)[nH]1,-2%[7.34 µM],-3%[7.34 µM]
O=C(Nc1nc(-c2ccc3c(c2)OCCO3)cs1)C1CC(=O)N(c2ccc3c(c2)OCCO3)C1 (centres undefined),-18%,?
CC1(C(=O)Nc2cccc3ncccc23)CCN1C(=O)C1(c2ccccc2)CC1 (centres undefined),20%,0%
COCC(=O)N1CCC(Oc2ccc(C(=O)NCCc3ncccc3C)cc2)CC1,-20%,-22%
CCOC(=O)[C@H]1[C@H]2COc3ccc(C)cc3[C@@H]2N2C(=O)c3cc(OC)c(OC)cc3NC(=O)[C@@]12C,0%,-11%
CCc1nnc2c(N3CCN(c4cc(Cl)ccc4C)CC3)nc3ccccc3n12,-20%,-7%
Cc1ccccc1C(=O)N1CC1C (centres undefined),-20%,-7%
COc1ccc(-c2c(NC(=O)c3ccco3)oc3ccc(Cl)cc3c2=O)cc1,i,-18%
O=C1CS(=O)(=O)C2(C(=O)N(Cc3ccc(F)cc3)c3ccccc32)N1c1cccc(C(F)(F)F)c1 (centres undefined),-8%,-8%

# Following part
structure,VACV mCherry inh,Vaccinia Venus
CS(=O)(=O)N1CCN(C(=O)CCC2CCCC2)CC1,.,-19%
CC1(C)C(=O)Nc2ccccc2N1C(=O)COc1ccccc1C#N,-16%,3%
Cc1cc2oc(C(=O)NCc3ccc4c(c3)OCO4)c(C)c2cc1C,-7%,-6%
COc1ccc(Nc2nc(Cl)nc(NCc3ccco3)n2)c(OC)c1,-8%,6%
Cc1cc(C)cc(NC(=S)N(Cc2ccc(Br)cc2)Cc2ccc(C(=O)O)cc2)c1,i,-5%
CCOC(=O)c1cc(C)n(CCc2ccccc2)c1C,i,?
COc1ccc(CCNC(=O)C(C)Sc2ccccc2)cc1OC (centres undefined),.,-12%
Cc1ccc(CNC(=O)c2ccc(N3CCC4(CC3)CC(c3cccc(Br)c3)=NO4)c(N)c2)cc1,?,?
Cc1ccc2c(c1)-c1onc(C(=O)N(C)c3ccc(F)cc3)c1CO2,3%,0%
COc1ccccc1-c1cc(C(=O)N/N=C/c2ccoc2)c2ccccc2n1,i,-4%
CCn1c(SCC(=O)NNC(=O)c2ccc(C)cc2)nnc1C1CC1,-26%,-6%
CCn1c(CN2CCC(C)CC2)nc2cc(NC(=O)c3cccc([N+](=O)[O-])c3)ccc21,-26%,-23%
Cc1ccc(C(=O)NCC(=O)N(C)CC(=O)Nc2c(Cl)cccc2Cl)s1,i,-20%
O=C(COc1ccccc1)NCC(=O)Nc1ccncc1,i,-2%
O=C(NC1CCCCC1)N1CCN(C(c2ccccc2)c2ccccc2)CC1,-11%,-15%
Cc1ccc(C)c(S(=O)(=O)NCCOc2nc(NC(C)C)nc(NC(C)C)n2)c1,-24%,-16%
Cc1ccc(-n2c(=O)c3ccc(C(=O)NCc4ccccc4Cl)cc3n(CC(=O)Nc3ccc(C)cc3C)c2=O)cc1,-16%,?
COc1ccc(N2CCN(S(=O)(=O)c3ccc(OC)c(C(=O)N4CCOCC4)c3)CC2)cc1,-14%,-3%
COc1cccc2cc(C(=O)N3CCN(c4ccccn4)CC3)c(=O)oc12,-13%,3%
COc1ccc(-c2nnc3n2CCCCC3)cc1OC,-17%,-15%
Cc1ccc(SCC(=O)N(C)C2CCS(=O)(=O)C2)c(C)c1 (centres undefined),-9%,-27%
Cc1cccc(C(=O)N2CCCC(N3CCN(c4cccc(Cl)c4)CC3)C2)n1 (centres undefined),-19%,-12%
Cc1ccc(S(=O)(=O)NCc2nc3ccccc3c(=O)n2N)cc1,i,-15%
Cc1nc2scc(C)n2c(=O)c1S(=O)(=O)Nc1ccc(N2CCOCC2)c(Cl)c1,-13%[7.34 µM],-14%[7.34 µM]
Cc1cc2c(cc1C)C(c1cccc([N+](=O)[O-])c1)CC(=O)N2 (centres undefined),0.35µM*,1µM*
COc1ccc(CNC(=O)CCc2c[nH]c3ccccc23)cc1,?,0%
Cc1cc(NC(=O)COc2coc(CN3CCN(c4ccccc4F)CC3)cc2=O)no1,-14%,-7%
CC1=NOC(=O)/C1=C/c1ccc2c(c1)OCO2,i,-4%
COc1ccc(NC(=O)CCCSc2ccccc2)cc1,-1%,-7%
CN(C)c1ccc(/C=C/c2cc(N(C)C)nc3ccccc23)cc1,-20%,-13%
Cc1cccc(-c2cnn(-c3cccc([N+](=O)[O-])c3)c2N)c1,-31%,-4%
COc1ccccc1N1CCN(S(=O)(=O)c2ccc3[nH]c4c(c3c2)CCCC4)CC1,-10%,-4%
CCCCN(C=O)c1c(CC)nc2ccc(C(=O)N3CCN(c4ccccc4)CC3)cn12,16%,-3%
O=C(COC(=O)CN1CCSC1=O)Nc1ccc(F)cc1Cl,-3%,-6%
Cc1ccc(Nc2c(-c3ccccc3)nc3cnccn23)cc1,?,0%
O=C(CCC1CCCCC1)NCCS(=O)(=O)N1CCN(c2ccccc2F)CC1,i,-9%
COc1cccc(-c2nc3ccc(N4CCN(C)CC4)cc3[nH]2)c1,?,-22%
CCOc1ccc(Cl)cc1-c1cc(C(=O)Nc2ccc(Br)cc2)[nH]n1,?,-20%
CS(=O)(=O)c1ccc(C(=O)Nc2ccc(N3CCCC3)cc2)c(Cl)c1,-11%,-5%
Cc1ccc(C(=O)Nc2nc3ccccc3[nH]2)cc1,i,?
O=C1CCCC2=C1C(c1ccco1)Nc1ccc(C(=O)c3ccccc3)cc1N2 (centres undefined),.,-29%
COc1cc(CO)ccc1OCC(=O)N1CCc2ccccc21,-10%,4%
O=C(CSc1ccc(F)cc1)Nc1ccc(N2CCOCC2)c(Cl)c1,i,-16%
